High-throughput results: PubChem, several laboratories
CBX7 inh: blocks human CBX7 binding to H3K27me3 peptide; O95931; AlphaScreen His6-CBX7 / biotin-H3K27me3 peptide binding; hits give low values; normalised signal (fraction of DMSO) (no concentration beside the values); 1.1% of 66,000 active; AID 1224903; in the data active = normalised signal below about 0.5;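 note: 100 nL library stock added to about 20 µL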
Target sequence (O95931 whole entry, looked up): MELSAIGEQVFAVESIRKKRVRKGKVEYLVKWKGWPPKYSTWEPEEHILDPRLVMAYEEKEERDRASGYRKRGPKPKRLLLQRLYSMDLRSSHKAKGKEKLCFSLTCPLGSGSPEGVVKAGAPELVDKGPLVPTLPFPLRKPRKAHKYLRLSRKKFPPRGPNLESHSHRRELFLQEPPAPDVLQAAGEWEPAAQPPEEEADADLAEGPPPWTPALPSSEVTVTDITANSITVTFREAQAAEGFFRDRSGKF
CBX7 inh z-score: second read-out of CBX7 inh, no call of its own (marks repeat the call); z-score; measured here: z-score of CBX7 signal; some inactives read as strong as hits; reference of the scale not given here;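 same signal on another scale; lower means less binding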
Numbers without * were called inactive; & = joins results of further samples.

The first three entries (preview)
SMILES	CBX7 inh	CBX7 inh z-score
O=C(Cn1nc(Cc2ccncc2)c2ccccc2c1=O)Nc1ccc(F)c(Cl)c1	1.03	0.709
CN(CC(=O)Nc1cc(F)ccc1F)S(=O)(=O)c1ccc2c(c1)n(C)c(=O)c(=O)n2C	1.22	2.06
Cc1cccc(CCNC(=O)c2ccc3c(=O)n4c(nc3c2)CCCCC4)c1	1.02	0.36

This part in full, from the start:
SMILES	CBX7 inh	CBX7 inh z-score
O=C(Cn1nc(Cc2ccncc2)c2ccccc2c1=O)Nc1ccc(F)c(Cl)c1	1.03	0.709
CN(CC(=O)Nc1cc(F)ccc1F)S(=O)(=O)c1ccc2c(c1)n(C)c(=O)c(=O)n2C	1.22	2.06
Cc1cccc(CCNC(=O)c2ccc3c(=O)n4c(nc3c2)CCCCC4)c1	1.02	0.36
Cc1ccccc1-c1nc(CS(=O)(=O)CC(=O)NC(C)CCc2ccccc2)c(C)o1 (configuration not stated)	0.82	-4.68
CC1CCN(c2nc3ccc(C(=O)NCCCN4CCOCC4)cc3s2)CC1	1.15	3.26
O=C(CSc1nnc(-c2cccnc2)n1Cc1ccccc1)NCc1ccccc1	1.03	0.724
CCc1ccc(NC(=O)Cc2c(C(=O)O)[nH]c3ccc(Cl)cc23)cc1	1.15	1.41
Cc1ccc2nc(SCc3ccccc3Cl)[nH]c2c1	1.03&1.06	1.21&1.52
COc1ccc(C(=O)Nc2nnc(CCS(=O)(=O)c3ccc(C)cc3)s2)cc1OC	1.06	0.668
COc1ccc(C)cc1S(=O)(=O)NCCc1c(C)[nH]c2ccc(OC(F)(F)F)cc12	0.666	-0.332
CC(C)OC(=O)CC1CC(c2ccccc2)N(Cc2ccccc2)CC1(C)O (configuration not stated)	1.01	0.159
CC1CCN(CCCNC(=O)CC2Nc3ccccc3NC2=O)CC1 (configuration not stated)	1.1	1.88
COc1ccc(-c2cn(-c3ccc(C)c(F)c3)c(=O)[nH]2)cc1OC	1	0.018
O=C(NCc1ccc(F)cc1)c1cc2c(s1)CSC2	1.09	1.03
CC1(C)CC(=O)c2cc(C(=O)NCCO)c(=O)n(-c3ccccc3)c2C1	1.08	0.341
Cc1cc(C)c(NC(=O)C2CCCN2CCC(C)C)c(C)c1 (configuration not stated)	1.02&0.925	0.168&-0.864
COCCc1nnc(NC(=O)Cc2ccccc2)s1	1.14	2.96
Cc1ccnc(N2C(=O)c3ccccc3C2Nc2ccc(C)cc2Cl)c1 (configuration not stated)	0.996	-0.129
O=C(NC1CCCCC1)c1ccc2c(c1)N(Cc1ccccc1F)C(=O)c1ccccc1S2	1.04	0.929
COc1ccc(N(CC(=O)NC(C)c2ccccc2)S(=O)(=O)c2c(C)nn(C)c2C)cc1 (configuration not stated)	1.09	0.66
Cc1ccccc1C(=O)N1CC(=O)Nc2ccc(F)cc2C1c1ccccc1 (configuration not stated)	1.01	0.0272
CCCN(CCC)C(=O)c1ccc2c(c1)N(Cc1ccccc1C)C(=O)c1ccccc1S2=O (configuration not stated)	1.01	0.0769
Cc1c(C(=O)Nc2cccc(-c3nc4ccccc4o3)c2)oc2ccccc12	0.994	-0.142
COCCN(CCOC)C(=O)c1sc2nc(-c3ccccc3)cn2c1C	1.05	1.63
CCCCC(NC(=O)c1ccc(F)cc1)c1nc2ccccc2[nH]1 (configuration not stated)	1.49	3.59
O=C(Nc1ccc(F)cc1)c1cccc(NC2=NC3CS(=O)(=O)CC3S2)c1 (configuration not stated)	1.09	3.38
CCCC1c2ccc(C)n2CCN1C(=O)Nc1ccccc1Cl (configuration not stated)	0.968	-1.45
COCCNC(=O)c1cc(-c2ccncc2)nc2ccc(S(=O)(=O)N3CCOCC3)cc12	1.11	0.854
CCCCNS(=O)(=O)c1ccc2nc(-c3cccs3)cc(C(=O)NCCC(C)C)c2c1	0.874	-1.73
O=C(c1ccc2c(c1)N(Cc1ccccc1)CCS2)N1CCN(c2ccccc2)CC1	0.549	-0.598
O=C(Nc1nc2c(Cl)cccc2s1)c1ccc(S(=O)(=O)N2CCc3ccccc32)cc1	0.988	-0.0878
CCOc1ccccc1NC(=O)C1CCCN(S(=O)(=O)c2cccnc2)C1 (configuration not stated)	0.954	-1.57
C#CCOc1ccc(-c2nnc(Nc3ccc(OC)cc3)c3ccccc23)cc1	0.942	-0.27
CC1C(c2ccccc2)NC(c2ccccc2)C(C)C1(O)c1ccccc1 (configuration not stated)	1.1	0.719
CCCc1cc(C(=O)Nc2ccc(OC)c(OC)c2)no1	1.11	0.145
COc1cc2c(cc1OC)C(c1ccccc1)NCC2 (configuration not stated)	1.03	0.861
CCOc1ccc(NC(=O)Cn2cc(S(=O)(=O)c3ccc(C)cc3)c(=O)c3ccccc32)cc1	0.803	-2.83
O=C(c1ccc2c(c1)N(Cc1ccccc1)CCS2)N1CCCCC1	0.523	-0.633
CCC(=O)Nc1cccc(-c2csc(-c3ccccc3)n2)c1	0.834	-0.464
COc1cccc(CN2C(=O)c3ccccc3Sc3ccc(C(=O)NC4CCCC4)cc32)c1	0.859	-2.16
OC1C2CCCC1C(c1ccccc1)NC2c1ccccc1 (configuration not stated)	0.89	-0.253
CCN(CC)S(=O)(=O)c1ccc(C(=O)Nc2sc3c(c2-c2nc4ccccc4s2)CCCC3)cc1	1.04	0.0629
Cc1cccc(Nc2cc(C(=O)O)c3ccccc3n2)c1C	0.793	-2.29
COc1ccc(C2CC(=O)Nc3cc(OC)cc(OC)c32)cc1 (configuration not stated)	0.962	-0.479
Cc1ccc(C2(c3ccc(O)cc3)CCCCC2)cc1	0.963	-1.02
CCOC(=O)N1CCN(c2cc(C)nc3c(-c4ccc(Cl)cc4)c(C)nn23)CC1	1.15	2.89
COC(=O)c1cc2ccsc2n1CC(=O)Nc1ccc(N(C)C)cc1	0.978	-0.64
COc1ccc(CNc2nc(-c3cccs3)cc(C(F)(F)F)n2)cc1	1.48	3.89
Cc1ccc(N2C(=O)c3ccc(C(=O)Nc4ccc(C(=O)O)cc4)cc3C2=O)cc1C	1.02	0.825
CCOC(=O)c1nnn(-c2nonc2NC(C)=O)c1C	1&1.01	0.159&0.0193
Oc1cccc2ccc(Oc3cccc4cccnc34)nc12	1.02	0.36
COc1ccc(NC(=O)CCN2CCN(CCO)CC2)c(OC)c1	0.897	-2.85
COc1ccccc1Cc1noc(-c2ccc(C#N)cc2)n1	1.08	1.24
COc1cccc(C(=O)Nc2c3c(nc4c2CCC4)CCCC3)c1	1.03	0.386
CCCCN(CC)CCCNC(=O)c1csc2c1CCCCC2	1.1	3.41
CCOc1ccc(-c2cn(-c3ccc(Cl)cc3)c(=O)[nH]2)cc1	1.04	1.05
COc1cc2c(C(=O)NCCC3=CCCCC3)cn(C)c(=O)c2cc1OC	1.03	0.979
O=C(Nc1c2c(nn1-c1cccc(Cl)c1)CS(=O)(=O)C2)c1ccc(F)cc1	1.1	0.671
COc1ccc(OC)c2[nH]c(=O)c(CCNC(=O)C3(c4ccc(Cl)cc4)CCCC3)cc12	1.01	0.103
Cn1c2ccccc2c2c(C(=O)NCCN3CCOCC3)cn(C3CCCC3)c(=O)c21	0.954	-0.0459
The list continues:
SMILES	CBX7 inh	CBX7 inh z-score
CCCNC(=O)c1cc(-c2cccc(OC)c2)on1	1.15	0.88
Cc1sc(NC(=O)c2ccc(F)cc2)nc1-c1ccccc1	1.17	2.69
O=C(Cc1nn[nH]n1)NCc1ccccc1Cl	1.05	1.76
COc1ccc(-c2nc(CSCC(=O)NCc3ccccc3Cl)c(C)o2)cc1	0.971	-1.38
CCOC(=O)C1CCCN(c2c(N3CCCCCC3)c(=O)c2=O)C1 (configuration not stated)	1.02	0.466
CCOc1ccc2nc(SCC(=O)Nc3ccccc3F)sc2c1	0.943	-0.408
CC(=O)Nc1ccc(NC(=O)CN(C)S(=O)(=O)c2ccc3nc(C)sc3c2)cc1	1.03	0.159
CCOc1ccc(C(=O)Nc2ccccc2)cc1Br	1.14	1.42
CCN1C(=O)c2ccccc2S(=O)(=O)c2ccc(C(=O)N3CCCCCC3)cc21	1.03	0.744
Cc1ccc2nc(-c3cccc(S(=O)(=O)N4CCOCC4)c3)cn2c1	1.03	1.06
Cc1nc2c(C(=O)NC3CCCC3)cnn2c(C)c1Cc1cccc(Cl)c1	1.03	1.18
COc1cccc(-c2nc(SCC(=O)Nc3ccc4c(c3)OCCO4)c(-c3ccccc3)[nH]2)c1	0.718	-3.36
COc1ccc(NC(=O)CSc2nnc(Cc3cccn3C)n2-c2ccc(C)cc2)c(OC)c1	0.843	-3.74
COc1ccc(-n2c(/C=C/c3cccc(OC)c3OC)nc3ccccc3c2=O)cc1	0.987	-0.659
COc1ccc(Nc2nc(N3CCNCC3)nc3ccccc23)cc1	1.16	3.05
Cc1ccc(-c2nc3sccn3c2Nc2ccc(C)c(C)c2)cc1	0.798	-4.04
Cc1c(Cl)cccc1NS(=O)(=O)c1cnc[nH]1	1.18	2.38
Cc1ccc(CCNC(=O)C2CC(=O)N(C3CCCC3)C2)cc1 (configuration not stated)	0.942	-1.32
CCn1cc(C(=O)N(C)c2ccccc2C)c2cc(OC)c(OC)cc2c1=O	1.01	0.0391
Cc1ccc(CNC(=O)c2ccc(NC3=NC4CS(=O)(=O)CC4S3)cc2)cc1 (configuration not stated)	1.14	1.1
O=C(CC(C(=O)N1CCc2ccccc21)n1ccnc1)N1CCOCC1 (configuration not stated)	0.986	-0.339
CCCCCc1ccc(-c2ccc(-c3noc(-c4ccc(OC)cc4)n3)cc2)nc1	1.14	3.89
Cc1ccc(CCNC(=O)C2=CCN(S(=O)(=O)c3ccccc3)CC2)cc1	1.02	0.486
Cc1noc(C)c1S(=O)(=O)N1CCC(C(=O)N2CCc3ccccc3C2)CC1	1.04	1.61

Next section (four carried over from the part before).
SMILES	CBX7 inh	CBX7 inh z-score
O=C(CC(C(=O)N1CCc2ccccc21)n1ccnc1)N1CCOCC1 (configuration not stated)	0.986	-0.339
CCCCCc1ccc(-c2ccc(-c3noc(-c4ccc(OC)cc4)n3)cc2)nc1	1.14	3.89
Cc1ccc(CCNC(=O)C2=CCN(S(=O)(=O)c3ccccc3)CC2)cc1	1.02	0.486
Cc1noc(C)c1S(=O)(=O)N1CCC(C(=O)N2CCc3ccccc3C2)CC1	1.04	1.61
O=C1/C(=C/c2ccccc2)CCS(=O)(=O)c2ccccc21	1.02	0.508
Cc1ccc(NC(=O)CCn2ccnc2C)cc1Cl	0.948	-1.21
Cc1c(Cl)cccc1Nc1nc(-c2cccnc2)cs1	0.879	-1.56
CC1CCCCN1CCNC(=O)c1cc(-c2ccncc2)nc2ccccc12 (configuration not stated)	1.14	1.62
CC(C)CCNC(=O)c1cc(=O)[nH]c2ccc(S(=O)(=O)N3CCCCC3)cc12	0.966	-0.386
CCc1ccccc1NC1=NS(=O)(=O)C(c2ccc(C)cc2)=C1C	0.963	-1.02
CCc1ccc(NC(=O)c2onc(C)c2Cl)cc1	1.07	2.36
CCOC(=O)Cn1nc(C)c2ccccc2c1=O	0.835	-1.8
CC1(C(=O)NC2CCCC2)CCC(=O)N1CCc1ccc(Cl)cc1 (configuration not stated)	0.804	-3.21
CCOC(=O)C1CCN(C(=O)CCc2c(C)nc3cc(-c4ccccc4)nn3c2C)CC1	0.996	-0.138
Cc1nc2c(C(=O)NCCCN3CCOCC3)cnn2c(C)c1Cc1ccccc1	1.05	1.6
Cc1cccc(C)c1NC(=O)Cn1cc2c(n1)CCCC2	0.996	-0.146
CC1(C(=O)NC2CCCCCC2)CCC(=O)N1Cc1ccc(F)cc1 (configuration not stated)	1.28	3.55
Cc1nc2ncccn2c1-c1csc(Nc2ccc(O)cc2)n1	0.99	-0.0121
Clc1ccc(-c2cc(-c3ccc(Cl)cc3)n(-c3ccccc3I)n2)cc1	0.971	-0.44
COc1ccc(-c2c(C)nn3c(N4CCC(C(=O)NCC(OC)OC)CC4)cc(C)nc23)cc1OC	1.03	0.0841
COc1ccc(CCNC(=O)CCc2c(C)nc3ncnn3c2C)cc1OC	1.09	1.79
Cc1csc2ncc(C(=O)Nc3ccc(C(F)(F)F)cc3)c(=O)n12	1.01	0.436
Cc1cc(OCC(=O)Nc2cccc(-c3nc4ncccc4o3)c2C)ccc1Cl	0.934	-0.0865
COc1ccc(Nc2cc(-c3ccccc3)nc(-c3ccc(Br)cc3)n2)cc1	1.47	15.4
Cc1ccc(-c2nnc(Nc3ccc4c(c3)OCO4)c3ccccc23)cc1S(=O)(=O)N1CCN(C)CC1	0.656	-0.387
CCOc1ccc(NC(=O)CC2C(=O)N(c3ccc(F)cc3)C(=O)N2Cc2cccs2)cc1 (configuration not stated)	1.01	0.0287
CC1CC(C)CN(CCCNC(=O)c2ccc3c(c2)N(Cc2ccccc2)CCS3)C1 (configuration not stated)	0.676	-0.43
COc1ccc(-n2nc3c(c2NC(=O)c2ccc(Cl)cc2Cl)CSC3)cc1	0.986	-0.351
COc1cccc(-c2nc(CS(=O)(=O)CC(=O)NCCc3ccccc3)c(C)o2)c1	1.03	0.152
CCOc1ccc(-n2c(=O)cc(N3CCN(c4ccccc4)CC3)[nH]c2=O)cc1	0.943	-1.04
COc1cc(-c2nc(-c3ccccc3)c(-c3cccs3)[nH]2)cc2c1OCO2	0.796	-0.203
O=C(Nc1cccc(C(F)(F)F)c1)C1CCN(S(=O)(=O)c2cccc3nonc23)CC1	0.966	-0.0454
Cc1ccn2c(NC(=O)C(C)(C)C)c(-c3ccccc3)nc2c1	0.975	-0.547
CC1CN(c2ncnc3c2cnn3-c2ccc(Cl)cc2)CC(C)O1 (configuration not stated)	1.11	0.105
COc1cccc(CNC(=O)C2CCCN(S(=O)(=O)c3ccc(Br)s3)C2)c1 (configuration not stated)	1.02	0.256
COC(=O)c1cccc(C(=O)Nc2ccccn2)n1	1.01	0.213

Pulled by compound from the entries so far:
SMILES	CBX7 inh	CBX7 inh z-score
COc1cc(-c2nc(-c3ccccc3)c(-c3cccs3)[nH]2)cc2c1OCO2	0.796	-0.203
COc1cccc(CNC(=O)C2CCCN(S(=O)(=O)c3ccc(Br)s3)C2)c1 (configuration not stated)	1.02	0.256
Cc1ccn2c(NC(=O)C(C)(C)C)c(-c3ccccc3)nc2c1	0.975	-0.547
CC1CN(c2ncnc3c2cnn3-c2ccc(Cl)cc2)CC(C)O1 (configuration not stated)	1.11	0.105
CCOc1ccc(-n2c(=O)cc(N3CCN(c4ccccc4)CC3)[nH]c2=O)cc1	0.943	-1.04

A portion of the library; rates above refer to the full screens.
